Screening data (PubChem BioAssay)
VACV Venus inh – vaccinia inhibition (Venus reporter). Potency, µM (series often up to 36.5 µM), for the others: at the highest dose activity change, negative = inhibition, actives largely listed as inhibitors. Vaccinia virus Venus reporter expression, fluorescence. actives 0.46% (n = 330,000); active means well fitted inhibition curve with a large enough effect; inconclusive means small, poorly fitted or top-dose-only effect; inactive means no such curve, though single readings can be large or run the other way; tested in A549 cells; further: nearly all actives have a fitted effect of over 30% in size; inactives centre near -10
VACV mCherry inh – inhibitors of vaccinia virus infection (mCherry reporter signal); Vaccinia virus mCherry reporter infection, fluorescence; about a quarter of the inactives have no number; Potency, µM (highest dose often 36.5 µM), for inactives: at the highest dose activity change, negative = inhibition, usual class: inhibitors; AID 720579; actives 0.63% (n = 310,000); active = well fitted inhibition curve with a large enough effect; inconclusive = small, poorly fitted or top-dose-only effect; inactive = no such curve, though single readings can be large or run the other way; tested in A549 cells; further: nearly all actives have a fitted effect of over 35% in size; inactives centre near -10
* hit, by the source's call; i = inactive; ? = inconclusive; / = no result given; & = joins results of further samples; [ ] = dose if it differs, or a comment. On the % scale 0 is the no-effect control and ±100 the full control effect; potency means the concentration at half of the fitted maximal effect.

Sample of the layout:
item	compound	VACV Venus inh	VACV mCherry inh
1	COc1cccc(NC(=O)CSc2nc(C)cs2)c1	-3.5%	/
2	O=C(C[C@H]1C/C=C\C[C@@H](Cc2ccc(F)cc2)C(=O)OC[C@H]2CCCN2C1=O)NCCO	-4.2%	-8.3%
3	CCOc1ccccc1NC(=S)Nc1ncccc1C	?	?

All compounds of this part, from the first entry:
item	compound	VACV Venus inh	VACV mCherry inh
1	COc1cccc(NC(=O)CSc2nc(C)cs2)c1	-3.5%	/
2	O=C(C[C@H]1C/C=C\C[C@@H](Cc2ccc(F)cc2)C(=O)OC[C@H]2CCCN2C1=O)NCCO	-4.2%	-8.3%
3	CCOc1ccccc1NC(=S)Nc1ncccc1C	?	?
4	Cc1cc(C)c(C)c(S(=O)(=O)NC2CCCCC2)c1C	-4.0%	i
5	COc1ccc(C(=O)CSC2=NS(=O)(=O)c3cc(Cl)ccc3N2)cc1	1.5%	-11.7%
6	S=C(Nc1ccccc1)N1CCn2c(nc3ccccc32)C1	-6.8%	-12.2%
7	CC1c2ccsc2CCN1S(=O)(=O)c1ccccc1 (configuration not stated)	-4.3%	-9.9%
8	CCNC(=S)NNC(=O)CSc1nc2ccccc2[nH]1	-7.7%	-4.4%
9	S=c1[nH]nc(C2CC2)n1Cc1ccco1	-3.8%	-3.8%
10	COc1cccc(OCc2cc(=O)n3c(-c4ccccc4)csc3n2)c1	-24.9%	?
11	CCc1ccc(NC(=O)c2cc(S(=O)(=O)N3CCCCC3)c[nH]2)cc1	4.3%	-7.8%
12	O=C1CSC(=Nc2ccccc2[N+](=O)[O-])N1	-2.6%	i
13	CC1(C)NC(=O)N(CCCOc2ccc(Br)cc2Cl)C1=O	-18.8%	-8.8%
14	CC(=NO)c1ccc2c(c1)C(=NO)c1ccccc1-2	-20.3%	-16.1%
15	O=C(NCCc1csc(-c2cccnc2)n1)c1ccccc1	2.9%&-11.6%	-14.8%&-11.8%
16	Cc1ccc(NC(=O)c2cccc(C(F)(F)F)c2)cc1NC(=O)c1[nH]cnc1C(N)=O	0.6%	i
17	CCCC1(CCC)C(=O)NC(=NCCc2ccc(OC)c(OC)c2)NC1=O	11.9%	i
18	O=C(Nc1ccc(Oc2ccccc2)cc1)c1ccc(F)c(S(=O)(=O)N2CCN(c3ccccc3F)CC2)c1	-25.2%	-25.8%
19	O=C1C=C(Nc2cccc(Cl)c2)CC(c2ccco2)C1 (configuration not stated)	-21.1%	i
20	O=C(N/N=C/c1cccc(Cl)c1)c1c(O)c2c([nH]c1=O)CCCC2	-11.3%	-19.2%
21	COc1ccc(-c2[nH]ncc2CN2CCC(N3CCSCC3)CC2)c(F)c1	-3.2%	-12.1%
22	CCCN(CC(=O)Nc1cc(Cl)cc(Cl)c1)CC(=O)Nc1ccc(F)c(F)c1F	?	?
23	Cc1nc2nc(C)c(CCC(=O)N3CCOCC3)c(C)n2n1	-0.8%	-9.5%
24	COc1ccc(/C=C/c2nnc(NC(=O)CC(C)C)s2)cc1	-8.3%	-9.1%
25	Cc1ccc([N+](=O)[O-])cc1NC(=O)c1ccc(C(C)(C)C)cc1	-22.5%	?
26	O=C(Cc1ccccc1)NCC(=O)OCC(=O)c1ccc2ccccc2c1	3.7%	34.2%[activator]
27	Clc1cc(Cl)c(Cl)c(Cl)c1Cl	-7.0%	i
28	O=C(O)c1cccnc1Br	-8.5%	i
29	O=C(O)CC(C(=O)O)C(c1ccccc1)c1ccccc1 (configuration not stated)	4.3%	i
30	COc1ccc2[nH]c(=O)c(CN(C(=O)c3cccc(Cl)c3)c3ccccc3OC)cc2c1	-22.8%	-26.0%
31	CCc1cccc(C)c1NC(=O)CSc1nc2ccccc2n1CC(=O)N(C)C	-3.9%	-18.6%
32	CC1(C)OC(=O)C2=C(C[C@@H](CCOCc3ccccc3)O[C@@H]2c2ccc(F)cc2)O1	0.6%	16.5%
33	COC(=O)[C@]12CCCCC=C1N(Cc1ccccc1)C(=O)[C@H](CC(=O)NCc1cccs1)C2	-16.1%	-3.3%
34	C/C(CC(=O)Nc1cccnc1)=N\NC(=O)C(C)Oc1ccc(Cl)cc1Cl (configuration not stated)	-23.3%	-1.6%
35	CCOc1ccc(C(=O)Nc2ccc3oc(-c4ccc(Br)cc4)nc3c2)cc1	-11.4%	-14.8%
36	N#Cc1c(SCC(N)=O)nc2c(c1-c1ccncc1)CCCC2	-13.1%	i
37	COc1ccc(N2CCN(CC(=O)Nc3cc(C)on3)CC2)cc1	-13.9%	-18.8%
38	Cc1ccc(C)c(SCc2nc3sc(C(=O)O)c(C)c3c(=O)[nH]2)c1	-2.4%	-14.5%
39	CCN(CC)CCN(C(=O)c1ccco1)c1nc2ccc(Cl)cc2s1	-0.6%	-7.7%
40	Cc1cc(C(=O)CSc2nc3ccccc3c(=O)[nH]2)c(C)n1CC1CCCO1 (configuration not stated)	-6.7%	?

Complete entries, looked up by structure. Order of values: VACV Venus inh	VACV mCherry inh
Results for `CC(=NO)c1ccc2c(c1)C(=NO)c1ccccc1-2` : -20.3%	-16.1%
Results for `COc1ccc2[nH]c(=O)c(CN(C(=O)c3cccc(Cl)c3)c3ccccc3OC)cc2c1` : -22.8%	-26.0%

(next part)
item	compound	VACV Venus inh	VACV mCherry inh
41	CC(NC(=O)Cc1ccccc1)C1COc2ccccc2O1 (configuration not stated)	-8.0%	-19.0%
42	CCN1CCCC1CNC(=O)C(=O)Nc1cccc(OC)c1 (configuration not stated)	-10.2%	-15.0%
43	CCNc1nc(N2CCCC2)nc(N2CCCC2)n1	-22.9%	-21.9%
44	O=C1CC2(CCN(C(=O)c3ccc(Br)cc3)CC2)Oc2ccccc21	-19.3%	-21.8%
45	Cc1cc(SCC(=O)NCCC2=CCCCC2)nc2ccccc12	-8.6%	-2.7%
46	S=c1nc[nH]c2c1[nH]c1ccc(Cl)cc12	-2.0%	-9.6%
47	O=C(Cn1c(=O)c(C(F)(F)F)nc2ccccc21)Nc1ccc(Br)cc1F	0.4%	-4.2%
48	CCCCCC1CC(=O)C=C(C)C1C(=O)OC (configuration not stated)	-3.0%	-5.2%
49	NC(=S)NN=Cc1c[nH]c2nccnc12	-28.2%	-7.0%
50	CCOC(=O)c1ccccc1NC(=O)CSc1ccccc1	-4.8%	/
51	OC1CCN(Cc2cn(Cc3ccccc3)nc2-c2cc3ccccc3o2)CC1	1.4%	-15.9%
52	Cc1nnc(SCC(=O)NCc2cccs2)n1-c1ccccc1	-15.0%	-16.6%
53	CC(C)[C@H](NC(=O)N1CC(=O)Nc2ccccc21)C(=O)N1CCC(C(=O)O)CC1	0.0%	-11.0%
54	O=C1NC(=O)N(CCc2ccc(F)cc2)C(=O)/C1=C\C=C\c1ccccc1	4.6%	-7.9%
55	O=C(c1cc(-c2ccc(O)cc2)on1)N1CCc2ccccc2C1	-0.1%	-8.3%
56	O=C(N/N=C/c1cccs1)c1cnccn1	-14.9%	-12.3%
57	O=C(NCCCN1CCOCC1)C(c1ccccc1)c1ccccc1	-15.5%	-0.2%
58	CCOc1cc(C(=O)OCc2cc(=O)n3c(C)csc3n2)cc(OCC)c1OCC	-0.9%	-9.0%
59	CC(C)(CSc1nncn1N)NS(=O)(=O)c1ccc(Cl)cc1	-2.2%	-3.9%
60	COc1cc2c(cc1OC)[C@H](C)N(C(=O)NCc1ccccc1)CC2	-21.7%	?
61	O=C(NCc1ccc2c(c1)OCO2)c1ccc(CS(=O)(=O)c2cccc(C(F)(F)F)c2)o1	-7.9%	-17.3%
62	COc1ccc(S(=O)(=O)N2CCOCC2)cc1NC(=O)CN1C(=O)NC2(CCCCC2C)C1=O (configuration not stated)	0.4%	-12.6%
63	COc1ccc(S(=O)(=O)N(Cc2ccccc2)c2ccccc2C(=O)Nc2ccccc2C(=O)NCc2ccco2)cc1	-28.4%	i
64	O=C(O)c1ccc2c(c1)C(=O)N(N1C(=O)c3ccccc3C1=O)C2=O	-3.6%	-15.8%
65	O=C(c1ccc(=O)[nH]c1)N1CCN(S(=O)(=O)c2cc(C(F)(F)F)ccc2Cl)CC1	-3.3%	-14.5%
66	COc1cccc(-n2ccn(CC(=O)c3ccc(F)cc3)c(=O)c2=O)c1	-14.1%	-13.9%
67	CS(=O)(=O)N(CCC#N)Cc1ccc(/C=C2\C(=O)Nc3ccccc32)o1	-17.1%	?
68	CSc1ccc(-c2sc(Nc3cccc4ccccc34)n[n+]2-c2ccccc2)cc1	-25.5%	?
69	O=C1CCC(C(=O)N2CCC(CO)(Cc3ccc(Cl)cc3)CC2)=NN1	-16.8%	-5.4%
70	Cc1cc(NC(c2cccnc2)c2c(C)[nH]c3ccccc23)no1 (configuration not stated)	-10.4%	/
71	CC1Cc2nc(SCC(=O)N3CCN(c4ccccc4)CC3)n(CCc3ccccc3)c(=O)c2S1 (configuration not stated)	-12.5%	8.0%
72	Cc1nnc(N/N=C/c2ccc(-c3ccc(Br)cc3)o2)n1N	?	?
73	C=CC1=CCN(S(=O)(=O)C(C)(C)C)[C@H]1CCO	-13.1%	i
74	O=C(c1ccccc1)N1CCC(CC2CC(c3ccc(Cl)cc3)=NO2)(C(=O)NCC2CCCCC2)CC1 (configuration not stated)	-22.4%	-3.2%
75	CN1C(=O)/C(=C/c2ccc(-c3ccccc3[N+](=O)[O-])o2)SC1=Nc1ccc(Cl)c(C(=O)O)c1	9.3%	i
76	CC1CCC(NC(=O)c2ccc3c(c2)S(=O)(=O)c2ccccc2C3=O)CC1 (configuration not stated)	-15.5%	?
77	COc1ccc(NC(=O)Cc2ccccc2)cn1	1.9%	-3.1%
78	CCOC(=O)C(CCCOc1ccc(C(C)CC)cc1)C(=O)OCC (configuration not stated)	5.6%	-7.6%
79	CC(OC(=O)c1cccc(NS(C)(=O)=O)c1)C(=O)Nc1ccc2c(c1)OCO2 (configuration not stated)	-24.0%	?
80	CCc1noc(C)c1C(=O)N1CCN(S(=O)(=O)c2ccc(Br)cc2)CC1	-16.7%	i
81	CSS(=O)(=O)c1cccc2cccnc12	-7.6%	i
82	O=C(C(=O)N1CCC(c2ccccc2)CC1)c1cccc([N+](=O)[O-])c1	-8.8%	?
83	O=c1nc(N2CCOCC2)ccn1-c1nc(-c2ccccc2)sc1-c1ccccc1	11.5%[7.34 µM]	1.7%[7.34 µM]
84	CC1=C(c2ccc(Cl)cc2)S(=O)(=O)N=C1N1CCC(C(=O)NCc2ccccc2F)CC1	-9.9%	-21.9%
85	CC(C)(C)c1cc(CNC(=O)C2CCC(=O)N(Cc3ccccc3F)C2)[nH]n1 (configuration not stated)	-10.4%	i
86	Cc1ccc(C2=NOC(C)(c3nnc(-c4ccccc4)o3)C2)cc1 (configuration not stated)	-12.6%	-1.0%
87	CCOc1ccc(CNC(=O)c2ccc3c(c2)sc2nc(-c4ccccc4)cn23)cc1	-13.5%	-22.5%
88	CC(C)(C)c1ccc(S(=O)(=O)N2CC(C(=O)O)Oc3ccc(Cl)cc32)cc1 (configuration not stated)	-3.9%	-5.0%
89	COc1cc(=O)n2c(c1C(=O)N(C)Cc1cscn1)CCN(Cc1c(C)[nH]c3ccccc13)CC2	-7.5%	i
90	CN(C)CC(C)(C)CNS(=O)(=O)c1ccc(Cl)cc1	-1.8%	-4.1%
91	CC(C)OCCCNC(=O)c1ccc(CS(=O)(=O)c2cccc(C(F)(F)F)c2)o1	-20.0%	-14.7%
92	COC(=O)[C@]12CCCCC=C1N(Cc1ccc(Cl)cc1Cl)C(=O)[C@H](CC(=O)N1CCN(C(=O)c3ccco3)CC1)C2	-10.4%	4.2%
93	O=C(NC1CCCCC1)C(=S)NCCc1ccccc1	-3.5%	i
94	Cc1cc(Oc2ccc(Cl)cc2)nc(-c2ccccc2O)n1	-6.5%	/
95	Cc1ccc(S(=O)(=O)CCC(=O)OC(C)C(=O)NC2CCCCC2C)cc1 (configuration not stated)	-17.4%	-15.4%
96	Cc1cccc(NC(=O)Nc2cccc(Oc3c(F)c(F)c(F)c(F)c3F)c2)c1	?	?
97	CC(C)C(=O)Nc1nnc(S(=O)(=O)N2CCc3ccccc32)s1	-12.7%&-7.3%	?
98	CSC1=NC(C)(C)C=C(/C=C/c2ccc(Cl)cc2)N1	-24.7%	-25.2%
99	CCN(c1ccccc1)c1nnc(NC(=O)Nc2ccc(C)cc2)s1	-28.1%	?
100	CCOc1ccccc1OCCOCCOc1c(Cl)cccc1Cl	-17.8%	-15.0%

Going on with the list.
item	compound	VACV Venus inh	VACV mCherry inh
101	O=C(CSc1nnnn1-c1cccc2c1CCCC2)N1CCCCC1	-13.9%	-17.8%
102	O=Nc1c(O)c2ccccc2c2ccccc12	10µM*	?
103	COc1ccc(NC(=S)N(CCc2c(C)[nH]c3ccc(C)cc23)Cc2cccnc2)cc1	?	?
104	Cc1cc(C)c2c(=O)n3c(nc2c1)C(Cc1ccc(O)cc1)NC(=O)c1cccnc1-3 (configuration not stated)	?	-28.7%
105	CCc1ccc(-c2cc(C)no2)cc1S(=O)(=O)N1CCN(c2cccc(Cl)c2)CC1	-25.7%	-26.0%
106	CC(C)[C@H](NC(=O)N1CC(=O)Nc2ccccc21)C(=O)N[C@H](C(=O)O)c1ccccc1	0.0%[7.34 µM]	11.7%[7.34 µM]
107	NS(=O)(=O)c1ccc(CCNC(=O)c2cnc(Cl)c(Cl)c2)cc1	-12.4%	-5.8%
108	CCOc1ccc(OCC)c(NC(=O)CSCCc2ccccn2)c1	8.7%	-3.9%
109	C=C1C(=O)O[C@@H]2C[C@@H](C)[C@H]3C=CC(=O)[C@]3(O)C[C@@H]12	-13.7%	-9.3%

The order is random (roughly 0.88% active in at least one column).
